Rango complex inh – qHTS Assay for Inhibitors of Rango (Ran-regulated importin-beta cargo) - Importin beta complex formation. Importin subunit beta-1 (Homo sapiens), Q14974. Rango CFP/YFP FRET sensor + importin beta, 45 min. Potency, µM (titrated, usually from 92.2 µM), without a hit: at the highest dose inhibition of complex formation. 0.031% of 340,000 active. AID 540263, 2011; active = rising FRET ratio curve, often small or poorly fitted; inconclusive = mostly compound fluorescence or quenching in the first reads; inactive = flat curves in all reads;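 also: potency is read from the fitted curve at half-maximal effect; 0% = DMSO wells and 100% = buffer wells lacking importin beta; nearly all actives have a fitted effect of over 15% in size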
Target sequence (Q14974 whole entry, looked up): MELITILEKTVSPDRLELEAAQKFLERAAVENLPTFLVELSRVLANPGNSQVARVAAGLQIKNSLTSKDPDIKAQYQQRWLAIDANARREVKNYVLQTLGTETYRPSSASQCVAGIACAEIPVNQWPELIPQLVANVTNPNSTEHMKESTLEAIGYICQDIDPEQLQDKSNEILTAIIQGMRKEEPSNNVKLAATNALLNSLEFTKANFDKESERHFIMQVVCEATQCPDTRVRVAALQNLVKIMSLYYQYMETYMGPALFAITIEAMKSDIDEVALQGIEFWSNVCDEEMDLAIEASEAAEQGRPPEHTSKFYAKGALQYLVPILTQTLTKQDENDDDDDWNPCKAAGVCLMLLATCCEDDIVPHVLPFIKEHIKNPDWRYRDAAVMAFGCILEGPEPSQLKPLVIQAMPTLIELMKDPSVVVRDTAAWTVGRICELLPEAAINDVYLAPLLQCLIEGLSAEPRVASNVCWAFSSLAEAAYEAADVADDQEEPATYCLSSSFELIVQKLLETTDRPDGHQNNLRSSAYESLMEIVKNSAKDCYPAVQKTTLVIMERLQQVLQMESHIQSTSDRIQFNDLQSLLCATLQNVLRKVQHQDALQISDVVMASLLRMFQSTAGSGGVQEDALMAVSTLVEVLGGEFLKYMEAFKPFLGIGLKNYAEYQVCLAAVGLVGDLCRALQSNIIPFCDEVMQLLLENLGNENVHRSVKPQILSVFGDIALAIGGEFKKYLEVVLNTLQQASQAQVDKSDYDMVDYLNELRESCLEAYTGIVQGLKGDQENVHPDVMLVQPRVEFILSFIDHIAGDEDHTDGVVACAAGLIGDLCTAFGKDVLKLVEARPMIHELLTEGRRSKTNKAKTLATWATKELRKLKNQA
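Inhibition scored from the CFP 486 nm/YFP 530 nm FRET ratio 45 min after adding 0.125 microM importin beta to 50 nM Rango biosensor preincubated 5 min with compound (room temperature, PBS with DTT, Tween-20, BSA). No-importin wells as positive control.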
miR-21 reporter – qHTS Assay for Modulators of miRNAs and/orActivators of miR-21; 340,000 tested, under 10 active; Potency, µM (titrated, usually from 38.3 µM), without a hit: top-dose reporter change, positive = more light; HeLa miR-21 FLuc reporter, luciferase, 48 h; active = well fitted rising curve with a large enough effect; inconclusive = small, poorly fitted or top-dose-only effect; inactive = no such curve, though single readings can be large or run the other way;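 also: % of control where 0% means no effect; miR-21 action dims this reporter so a rising signal means less miR-21 action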
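HeLa cells endogenously expressing miR-21, stably carrying CMV-driven firefly luciferase with a downstream miR-21 binding site, 2000 cells/well. Titrations up to approximately 40 uM, 48 hours; luciferase luminescence read.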
GLA inh pH 4.5 – qHTS Assay for Inhibitors of Human alpha-Galactosidase at pH 4.5. purified enzyme, 4-MU-alpha-Gal fluorescence, pH 4.5. 230,000 tested, under 10 active. activity change, negative = inhibition, % at 105 µM. Alpha-galactosidase A (Homo sapiens), P06280; inconclusive = small, poorly fitted or top-dose-only inhibition, or a rising curve; inactive = flat fitted curve, though single readings scatter; no compound was filed as active;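 also: 0% = full activity with enzyme and -100% = basal without enzyme; dose as in the result columns while the protocol names 77 µM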
Rango dissoc inh – qHTS Assay for Inhibitors of RanGTP induced Rango (Ran-regulated importin-beta cargo) - Importin beta complex dissociation; Snurportin-1 (Homo sapiens) + GTP-binding nuclear protein Ran (Homo sapiens) + Importin …; Biochemical FRET Rango-importin beta, RanGTP-induced dissociation; Potency, µM (series often up to 46.1 µM), without a hit: at the top dose activity change, negative = inhibition; 0.071% of 340,000 active; active means falling FRET ratio curve, often poorly fitted, with flat reads before Ran was added; inconclusive means other falling curves, or compound fluorescence or quenching; inactive means flat or rising ratio curve;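 also: potency is read from the fitted curve at half-maximal effect; % of control where 0% means no effect; nearly all actives have a fitted effect of over 45% in size; -100% = wells without RanGTP and RCC1; the record marks most hits as doubtful in a second field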
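Rango (0.1 uM)–importin beta (0.25 uM) complex; RanGTP-RCC1 trigger; 45 min RT; CFP/YFP FRET read.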
The depositor's hits bear a star; ? = inconclusive; · = no result given; & = joins results of further samples. These rows are one share of the data; count on the stated rates, not on these rows.

Below each SMILES: Rango complex inh	miR-21 reporter	GLA inh pH 4.5	Rango dissoc inh
> CC(=O)c1cccc(N(C(=O)c2ccco2)C(C(=O)NC2CCCC2)c2ccc(N3CCOCC3)cc2)c1 (stereo unspecified)
 : ?	1.0%	-6.4	3.6%
> CC1(C)CC(CC(=O)Nc2ccc([N+](=O)[O-])cc2)C(=O)O1 (stereo unspecified)
 : 1.0%	0.4%	?	1.1%
> Cc1cc(C)nc(/N=C2\NC(=O)CC(C(=O)O)N2CCc2c[nH]c3ccccc23)n1 (stereo unspecified)
 : -5.0%	-1.4%	-19.3	-20.9%
> Cc1cccc(C)c1NC(=O)CN(c1ccccn1)S(=O)(=O)c1ccc(F)cc1
 : -0.8%	0.0%	2.1	0.4%
> CCOC(=O)c1ccc(N2C(=O)C(O)=C(C(C)=O)C2c2ccc(O)c(OC)c2)cc1 (stereo unspecified)
 : 0.7%	-4.8%	-2.8	-8.1%
> O=C(CCCn1c(=O)oc2ccccc21)N1CCc2ccccc2C1
 : 0.4%	-35.1%	2.1	-12.0%
> O=C(CNC(=O)c1ccco1)OCc1ccc(C(=O)c2ccccc2)cc1
 : -3.4%	-7.6%	0.4	-7.8%
> COC(=O)c1ccc(NC(=O)CCn2cccc2)cc1
 : 2.4%	-18.1%	-0.5	2.1%
> CN1C/C(=C/c2cccs2)C(=O)/C(=C\c2cccs2)C1
 : ?	-18.7%	·	-13.0%
> Cc1ccc(S(=O)(=O)C2(C(=O)N3CCCC(C)C3)CC2)cc1 (stereo unspecified)
 : -4.6%	-3.9%	6.4	7.6%
> COc1ccc(C2(c3ccc(OC)cc3)NC(=O)N(CC(=O)Nc3ccc(C(=O)N(C)C)cc3)C2=O)cc1
 : 1.6%	-0.7%	·	-9.1%
> Cc1cc(Br)c2[nH]cc(CCNC(=O)c3ccco3)c2c1
 : -1.8%	0.4%	·	-3.3%
> COc1ccc(F)cc1C(=O)C1CCCN(Cc2c(C)n(C)n(-c3ccccc3)c2=O)C1 (stereo unspecified)
 : -4.8%	-0.3%	-2.9	29.5%
> O=C(OCCN1C(=O)c2cccc3c(N4CCOCC4)ccc(c23)C1=O)c1cccc(Cl)c1
 : ?	-0.2%	1.9	?
> COc1cccc(C(=O)c2cn(CC(=O)NCc3ccco3)c3nc(C)ccc3c2=O)c1
 : ?	6.1%	·	-6.6%
> COc1cccc(-c2cc(C(=O)N3CCN(c4ccc(F)cc4)CC3)no2)c1
 : 18.1%	-6.4%&-5.9%	·	1.3%
> CCN(CC)c1ccc(S(=O)(=O)N2CCOCC2)cc1NC(=O)COC(=O)COc1ccccc1C
 : 2.9%	-5.4%	·	0.1%
> Cc1cc(C)c(NC(=O)C2CCCN2CCC(C)C)c(C)c1 (stereo unspecified)
 : 5.1%	-6.2%	-0.5	9.7%
> Cc1ccc(NC(=O)c2cc(Cl)ccc2[N+](=O)[O-])cc1C
 : ?	29.1%	-5.3	-24.1%
> COc1ccc(C(CC(=O)c2ccccc2)S(=O)(=O)c2ccc(C)cc2)cc1 (stereo unspecified)
 : -3.6%	-31.1%	-2.7	-14.2%
> COc1ccc(CN2CCN(CCC(C)C)C(CCO)C2)cc1Cn1cccn1 (stereo unspecified)
 : -0.1%	-4.3%	-11.3	5.2%
> CN1CCN(C(=O)c2cc3cc(F)ccc3[nH]2)CC1
 : -1.1%	-16.9%	·	-13.0%
> O=C(COc1ccccc1Cl)NNC(=O)Cn1[nH]c(=O)c2ccccc2c1=O
 : 2.3%	·	·	1.5%
> COc1ccc(C)cc1Nc1nnc(C)c(=O)[nH]1
 : -1.9%	3.3%	8.8	0.5%
> CCN(CC)C(=O)[C@H]1C[C@H](CC(=O)NCC23CC4CC(CC(C4)C2)C3)C(=O)N2CCc3c([nH]c4cc(CCC(=O)N(C)C)ccc34)[C@]12C
 : 0.7%	·	·	14.9%
> Cc1cn(COC/C=C/c2ccccc2)c(=O)[nH]c1=O
 : 3.8%	-6.6%	-0.5	-0.4%
> O/N=C/c1cccc[n+]1CCCCCC[n+]1ccccc1/C=N/O
 : -2.3%	-0.5%	·	9.7%
> CCc1cccc(NC(=O)Cn2c(=O)c3cccn3c3ccccc32)c1
 : -2.8%	-3.9%	·	1.4%
> Nn1c(SCc2cccc(F)c2)nnc1-c1ccncc1
 : -0.1%	-8.6%	-4.8	-19.6%
> COC(=O)[C@H](CCSC)NC(=O)NCc1ccccc1F
 : -4.0%	-7.8%	5.7	-1.6%
> O=C(Nc1nc2ccccc2[nH]1)C1CCN(S(=O)(=O)c2cccs2)CC1
 : 0.5%	-6.9%	-2.6	-5.8%
> O=C(CN1C(=O)NC2(CCCC2)C1=O)N1CCN(S(=O)(=O)c2ccccc2F)CC1
 : 4.2%	1.0%	·	31.2%
> CN(C)c1ccc(C(=O)NCc2ccc3c(c2)CCO3)cc1
 : -3.9%	-35.3%	-1.4	0.9%
> CN(C)N1C(N)=C(C#N)C(c2ccc3c(c2)OCO3)C2=C1CCCC2=O (stereo unspecified)
 : 5.4%	-0.4%	·	11.5%
> COCCc1nnc(NC(=O)Cc2ccccc2)s1
 : -0.4%	-3.8%	3.4	-11.5%
> CCSc1nnc(Cn2c(=O)sc3ccccc32)n1-c1ccc(OC)cc1
 : 4.3%	-0.7%	0.3	1.4%
> Cc1oc(-c2ccc3c(c2)OCCO3)cc1C(=O)NCC(=O)O
 : -0.7%	10.2%	-0.7	-12.0%
> COc1cccc(-c2nc(CS(=O)CC(=O)NCCc3ccccc3)c(C)o2)c1 (stereo unspecified)
 : -3.1%	-11.8%	·	11.3%
> COc1ccc(C(=O)NCCOC(C)C)cc1OC1CCN(C(C)=O)CC1
 : -2.8%	1.8%	·	?
> CCCCCCCCCCCCN1[C@@H](CC(C)=O)c2cc(F)cc(F)c2S1(=O)=O
 : -0.3%	·	·	-0.3%
> Cc1cc(C)c(C#N)c(SCCN2CCCCC2)n1
 : -0.7%	-7.8%	·	-9.2%
> COc1ccc(Cc2nc3ccc(C(=O)N4CCC(N(C)C)C4)cc3o2)cc1 (stereo unspecified)
 : -0.1%	-10.9%	·	35.7%
> COC(=O)CSc1nnc(-c2cccnc2)n1C
 : -0.3%	-1.3%	4.2	-7.1%
> O=C(CSc1c2c(nc3ccccc13)CCCC2)NCc1ccco1
 : -0.5%	9.6%	2.4	12.9%
> O=C(O)CS(=O)CC(=O)NCc1cccc(C(F)(F)F)c1 (stereo unspecified)
 : 2.0%	0.9%	6.6	3.1%
> O=C(CN1C(=O)NC(CCc2ccccc2)C1=O)Nc1ccc(F)c(F)c1F (stereo unspecified)
 : 0.2%	·	·	-14.9%
> COc1ccc(OC)c(/C=N/NC(=O)c2nnn(-c3nonc3N)c2-c2cccs2)c1
 : ?	-0.4%	·	?
> Cc1cnc(NC(=O)Cc2ccc(Br)cc2)s1
 : 5.3%	-0.7%	·	-5.6%
> NC(=O)CC(NC(=O)Cc1ccc(Cl)cc1)c1ccc(NCc2ccccc2)c([N+](=O)[O-])c1 (stereo unspecified)
 : -0.8%	-3.2%	-1.1	-7.8%
> O=C(CSc1nnc(-c2cccnc2)n1Cc1ccccc1)NCc1ccccc1
 : 0.6%	-6.4%	-8.7	-18.9%

Remaining list, next part.
Below each SMILES: Rango complex inh	miR-21 reporter	GLA inh pH 4.5	Rango dissoc inh
> CNC(=O)COC(=O)c1ccccc1Oc1ccccc1
 : 0.2%	-9.6%	1.7	18.6%
> O=C1N/C(=C/c2cccn2-c2ccc(F)cc2)C(=O)N1Cc1ccccc1F
 : ?	-12.7%	-1.6	?
> CC(=O)NC1(C(F)(F)F)NC(=O)N(c2ccc(F)cc2)C1=O (stereo unspecified)
 : 0.2%	1.1%	3.9	-18.1%
> CCC(C)NC(=O)CC(NS(=O)(=O)c1ccc(Cl)cc1)c1ccco1 (stereo unspecified)
 : ?	-4.7%	8.0	5.4%
> Nc1ccc(S(=O)(=O)N2CCCC2)cc1Cl
 : 4.6%	5.2%	-0.7	12.1%
> COc1cc2c(cc1NC(=O)CCCN1C(=O)CCC1=O)oc1ccccc12
 : 4.2%	-36.8%	0.9	-4.4%
> O=C(Nc1ccccc1C(=O)O)c1ccc(NC(=O)C2CCCO2)cc1 (stereo unspecified)
 : 0.0%	2.5%	·	-8.2%
> CCCC(=O)NC(c1ccc(OC)cc1)c1c(O)ccc2ccccc12 (stereo unspecified)
 : 3.6%	19.6%	·	-1.3%
> CCC1C(=O)c2ccccc2N(C)C1=O (stereo unspecified)
 : 5.3%	-16.5%	8.3	22.4%
> CCCc1cc(=O)[nH]c(SCC)n1
 : 1.4%	1.4%	-3.0	13.2%
> COc1ccc(-c2noc(N3CCCC(C(=O)Nc4ccc(C(C)=O)cc4)C3)n2)cc1 (stereo unspecified)
 : 0.5%	-7.3%	·	18.7%
> Cc1[nH]c2ccccc2c1C(=O)CCl
 : 0.2%	24.0%	-22.3	-8.0%
> CCOC(=O)CNc1nc(OCC#N)nc(N2CCOCC2)n1
 : 7.1%	-3.1%	1.6	-3.2%
> COC(=O)CSc1ncnc2scc(-c3ccccc3)c12
 : 0.4%	-8.3%	2.3	-6.0%
> CCOC(=O)c1ccc(/C=C2\c3ccccc3C(=O)N2c2ccccc2)cc1F
 : -2.2%	·	·	15.0%
> O=C(NC(NC(=S)N1CCOCC1)C(Cl)(Cl)Cl)c1cccc2ccccc12 (stereo unspecified)
 : 0.7%	-6.8%	-1.0	14.7%
> O=C(NCc1ccc2c(c1)OCO2)c1cc(COc2c(F)cccc2F)on1
 : 1.5%	-28.3%	·	8.8%
> Cc1cc(F)ccc1NC(=O)Cn1c(C)csc1=O
 : 0.5%	·	·	0.2%
> O=C(COC(=O)CCc1c[nH]c2ccccc12)NCCc1ccccc1
 : 4.2%	·	·	2.9%
> O=C1OCc2nc3cc4c(cc3c(-c3ccc(F)cc3)c21)OCO4
 : 4.4%	-0.6%	·	5.6%
> CCc1noc(C)c1C(=O)OC(C)C(=O)c1c(C)[nH]c2ccccc12 (stereo unspecified)
 : -1.1%	·	·	-8.3%
> COCCNC(=O)c1cc(-c2ccncc2)nc2ccc(S(=O)(=O)N3CCOCC3)cc12
 : 1.3%	-6.5%	1.0	-5.2%
> O=C(CCn1c(=O)oc2ccccc21)Nc1cccc(Cl)c1
 : 1.3%	-14.0%	0.5	-7.7%
> COc1cccc(NC(=S)N2CCn3cccc3C2c2cccnc2)c1 (stereo unspecified)
 : 2.1%	-15.5%	-5.8	1.6%
> COc1ccc(C)cc1NC(=O)CCc1c(C)nn(-c2ccc(N3CCCCC3)nn2)c1C
 : -3.5%	-24.3%&-2.0%	·	-3.6%
> CN1CCN(CCCNC(=O)c2ccc(CS(=O)(=O)c3ccc(Br)cc3)o2)CC1
 : 1.8%	0.5%	0.0	11.8%
> O=C(COC(=O)Cc1c(Cl)cccc1Cl)Nc1ccccc1-c1ccccc1
 : -1.9%	-0.7%	3.4	1.0%
> Clc1ccc(-n2ncc3c(N4CCCC4)ncnc32)cc1
 : -4.0%	-57.6%	-10.3	9.0%
> c1ccc(SCc2nc(-c3ccncc3)n[nH]2)nc1
 : -3.1%	-15.8%	-0.3	11.7%
> COc1ccc(N2CCN(Cc3cc(=O)oc4ccc(Cl)cc34)CC2)cc1
 : 2.7%	-6.4%	5.1	2.6%
> O=C(COC(=O)C1CC2CCCC(C1)C2=O)Nc1ccc(Cl)cn1 (stereo unspecified)
 : -0.5%	·	·	-14.3%
> Cc1ccccc1CSc1nc2c(c(=O)[nH]1)CCC2
 : 2.5%	-8.0%	9.6	4.1%
> Cc1ccc(S(=O)(=O)NC(CC(C)C)C(=O)NCC(C)(C)N2CCOCC2)cc1 (stereo unspecified)
 : ?	·	·	2.3%
> CC(C)(C)OC(=O)N[C@@H](CCCCNC(=O)OCc1ccccc1)c1nnc([C@H](CCCCNC(=O)OCc2ccccc2)NC(=O)OC(C)(C)C)o1
 : -8.1%	-9.3%	-2.6	-6.0%
> COCCN(CCOC)C(=O)C12CCC(C)(C(=O)C1)C2(C)C (stereo unspecified)
 : -0.1%	-2.0%	11.3	-3.0%
